# AmpC inh no det: Promiscuous and Specific Inhibitors of AmpC Beta-Lactamase (assay without detergent); 1.8% of 71,000 active; Potency, µM (series often up to 28.7 µM), for inactives: at the highest dose activity change, negative = inhibition; AmpC nitrocefin hydrolysis, absorbance 480 nm, no detergent; potencies from a single point are estimates; active = falling curve, for most hits resting on a single point; inconclusive = weak or doubtful change; inactive = flat or rising curve; also: % of control where 0% means no effect; about half of the hits show no inhibition at the top dose; a quarter of the inactives give rising signals
# Target sequence (P00811 whole entry, looked up): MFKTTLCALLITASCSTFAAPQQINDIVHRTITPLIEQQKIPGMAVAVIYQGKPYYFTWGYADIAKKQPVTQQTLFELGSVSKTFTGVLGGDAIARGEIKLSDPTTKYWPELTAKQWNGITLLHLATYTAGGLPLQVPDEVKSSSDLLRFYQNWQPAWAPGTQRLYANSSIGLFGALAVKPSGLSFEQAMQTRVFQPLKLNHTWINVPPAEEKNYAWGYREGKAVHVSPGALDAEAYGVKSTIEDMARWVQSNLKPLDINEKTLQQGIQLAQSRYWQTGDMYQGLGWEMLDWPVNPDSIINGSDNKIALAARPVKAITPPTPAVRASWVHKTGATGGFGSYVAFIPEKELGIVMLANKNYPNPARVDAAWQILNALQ
#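 Enzyme, pH 7.0 phosphate. Compound titrations were pre-incubated with AmpC for 15 min at room temperature before nitrocefin (stock 800 uM) addition; product formation was recorded at 480 nm every 20 s for 4 min.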
# Numbers without * were called inactive; ? = inconclusive; [ ] = remark or other dose. Potency is read from the fitted curve at half-maximal effect. Some of the compounds tested, so the mix of outcomes need not match the whole.
SMILES	AmpC inh no det
COC(=O)[C@H](CC(C)C)NC(=O)NC1CCCc2ccccc21 (stereo partly drawn)	-5.1%
COc1cccc(-c2ccc3ncnc(NCc4ccc(OC)cc4OC)c3c2)c1	7.94µM*
CCOC(=O)c1c(Nc2nc(C)c(C(=O)NC)s2)sc(C)c1C	128.7%
CCOC(=O)Cn1c(CN(C)Cc2ccccc2)nc2c1c(=O)n(C)c(=O)n2C	75.8%
Brc1cnc(N2CCCC2)nc1N1CCCCC1	1.1%
Cn1c(CCN2CCOCC2)nc2cc(NC(=O)COc3ccccc3)ccc21	-13.3%
CCN(CC)C(=O)c1cccc(C)c1	2.7%
CCOC(=O)C1CCN(c2ncnc3c2oc2ccccc23)CC1	81.3%
CCOC(=O)c1ccc(NC(=O)CSc2nnc(COc3ccccc3OC)n2C)cc1	66.2%
CC(C)c1cccc2c([Si](C)(C)C)c3c(nc12)-c1cccc(=O)n1C3	216.7%
CC(=O)Nc1ccc2c(c1)/C(=C/c1ccc([N+](C)(C)C)cc1)c1ccccc1-2	20.9%[5.75 µM]
CCC(Sc1nc(=O)cc(N)n1CCc1ccccc1)C(=O)Nc1cc(C)on1 (stereo not drawn)	33.0%
O=C1Nc2ccc(S(=O)(=O)N3CCCC3C(=O)O)c3cccc1c23 (stereo not drawn)	-3.4%
CN(C)c1nc(Oc2ccc(=O)n(C)n2)nc(N2CCOCC2)n1	-1.6%
COc1cc(NC(=O)C2CCCN2S(=O)(=O)c2ccc3c(c2)CCC(=O)N3)cc(OC)c1 (stereo not drawn)	27.2%
Cc1ccc2cccc(SCC(=O)NCc3ccco3)c2n1	4.7%
CCOC(=O)c1cnc(SC2CC(=O)N(c3ccc(OC)c(OC)c3)C2=O)nc1N (stereo not drawn)	38.0%
Cn1c(C(=O)N2CCC3(CC2)OCCO3)cc2c(=O)n(C)c3ccccc3c21	28.5%
O=c1c(-c2ccc(Cl)cc2)nc2cnc(N3CCOCC3)nc2n1C[C@H]1CCCO1	8.0%
O=C(CNC(=O)c1ccc(Br)o1)Nc1cccc(-c2cnc3ccccc3n2)c1	-0.8%
Cc1cc(C)n(CCCNC(=O)c2ccc(S(=O)(=O)NCc3ccco3)cc2)n1	33.8%
O=C(CN1CCOCC1)N(c1ccccc1)c1ccc2ccccc2c1	138.0%
Cc1cc(/C=N/n2cnnc2)c(C)n1-c1ccc(C(=O)O)cc1	-6.8%
O=C(Cc1ccc(-n2cnnn2)cc1)NC12CC3CC(CC(C3)C1)C2	17.3%
Cc1nc(NC(=O)CSc2nnnn2Cc2ccccc2)sc1C	13.5%
CC1=CC2=NC(=O)CC(C)(C(=O)N(CC(=O)NC(C)(C)C)C3CCCC3)N2C=C1 (stereo not drawn)	-5.1%
CCCc1nnc(NC(=O)CN2C(=O)c3ccccc3S2(=O)=O)s1	-10.1%
Cc1nnc(SCC(=O)NCc2ccccc2)s1	-5.5%
COc1ccc(N2C(=O)CC(N3CCN(c4nc5ccccc5s4)CC3)C2=O)cc1 (stereo not drawn)	126.3%
CS[C@]12C(=O)C[C@]3(C)[C@@H](CC[C@@]3(O)C(=O)CO)[C@@H]1CCC1=CC(=O)CC[C@]12C	-0.6%[5.75 µM]
CCS(=O)(=O)n1nc(NCc2cccc(OC)c2)nc1NCc1cccc(OC)c1	25.3%
O=C(CC(Nc1ccc(F)cc1)C(=O)O)c1ccccc1 (stereo not drawn)	-16.1%

# Looked up by structure from the entries so far:
SMILES	AmpC inh no det
O=C1Nc2ccc(S(=O)(=O)N3CCCC3C(=O)O)c3cccc1c23 (stereo not drawn)	-3.4%
CN(C)c1nc(Oc2ccc(=O)n(C)n2)nc(N2CCOCC2)n1	-1.6%

# Continuation.
SMILES	AmpC inh no det
Clc1ccccc1-c1nc(NCc2cccs2)c2ccccc2n1	15.9%
CCc1c(C)c2nncn2[nH]c1=O	-7.4%
COc1ccccc1C1CC(=O)NC(C)=C1C(=O)OCC(C)C (stereo not drawn)	15.0%
Cc1cccn2c(=O)c3cc(C(=O)N4CCc5ccccc5C4)n(C)c3nc12	34.0%
Cc1c(CN(C)C)c2c(n1C)C(=O)c1ccc(Br)cc1-2	9.8%
C=CCn1c(=O)c2c(nc(-c3ccc(S(=O)(=O)O)cc3)n2C)n(C)c1=O	0.4%
CCOC(=O)Cc1csc(NC(=O)CSc2nnc(Cc3csc(N)n3)n2C)n1	11.2%
O=C(CCn1[nH]c(=O)c2ccccc2c1=O)NCCO	1.5%
CCOc1cc(C2NC(=O)NC(C)=C2C(=O)OCc2ccccc2)ccc1O (stereo not drawn)	20.2%
CCn1c2ccccc2c2cc(/C=N/n3cnnc3)ccc21	108.6%
CCCC(=O)NCCCc1nc2ccccc2[nH]1	-6.7%
CCOC(=O)CSc1nnc(CNC(=O)c2ccc(OC)cc2)n1Cc1ccccc1	50.8%
CC(C)Sc1nnc(NC(=O)C2CC2)s1	6.4%
N#Cc1cc2ccc(N3CCOCC3)cc2cc1C#N	0.3%
Cc1nnc2sc(-c3cc4ccccc4o3)nn12	1.4%
O=C(CSc1nnc(-c2cccs2)o1)OC1CCCCC1	15.4%
CC1=CCC(C(=O)O)C(C(=O)O)C1 (stereo not drawn)	0.1%
CCOC(=O)c1cnn(-c2ncnc3sc(C)c(C)c23)c1N	1.8%
CCOC(=O)c1cnc(-n2cc(C)cn2)nc1NCc1ccc2c(c1)OCO2	39.3%
O=C(Nc1ccc(Cc2ccncc2)cc1)c1ccco1	0.3%
O=C(CN1C(=O)CSC1=O)NCc1ccccc1	-5.6%
O=C(COC(=O)c1ccc2c(c1)OCCO2)NCCC1=CCCCC1	12.7%
COc1ccc(-c2nnc(SCc3cc(C)cc(C)c3)o2)cc1	13.2%
O=C(CN1CCN(c2ccc(Cl)cc2)CC1)Nc1cccc(F)c1	34.0%
C=C(C)Cn1c(=O)c(NC(=O)c2ccccc2)c2n(c1=S)CCC2	5.1%
CCOC(=O)C1CCCN(CC(=O)NC2=Nc3ccccc3N=C(C)C2c2ccccc2)C1 (stereo not drawn)	98.0%
CCn1c(SCC(=O)N2CCN(c3ccccc3)CC2)nnc1-c1ccoc1C	58.0%
N[C@H]1CCN(O)C1=O	0.1%
Cc1nc2ccc(Cl)cc2nc(C)/c1=N\O	-14.9%
C[C@]12C/C(=C/O)C(=O)C[C@@H]1CC[C@@H]1[C@@H]2CC[C@@]2(C)[C@H]1CC[C@]2(C)O	?
O=C(c1ccc(C(F)(F)F)cc1)N1CCCCC1	7.3%
CCOc1ccccc1NC(=O)c1ccccc1NS(C)(=O)=O	-2.3%
CCOc1ccc(Cl)cc1S(=O)(=O)n1cnc2ccccc21	71.8%
c1ccc(CN2CCC3(CCNCC3)CC2)cc1	144.7%
Cc1ccc(OC(=O)C(F)(F)F)c2c1NCCC2	4.6%
Cc1ccc2c(c1)nnn2C1CCN(S(=O)(=O)c2ccc(C(=O)N(C)C)cc2)CC1	92.7%
CCn1c(N2CCC(Cc3ccccc3)CC2)nc2c1c(=O)[nH]c(=O)n2C	94.8%
COCc1cc(=O)n2c(-c3ccc(C)cc3)n[nH]c2n1	-12.7%
Cc1cc(C)n(-c2cc(N3CCOCC3)ncn2)n1	0.5%
CC1(C)CC(=O)C(Sc2nnc(-c3ccc(O)cc3)n2CC2CCCO2)C(=O)C1 (stereo not drawn)	-9.5%
O=C1NCCCN1Cc1ccc(F)cc1Cl	0.6%
COC(=O)[C@@H](NC(=O)N1CCN(c2cccc(C(F)(F)F)c2)CC1)C(C)C	60.6%
CCN(C(=O)COC(=O)c1cccnc1SC)C1CCS(=O)(=O)C1 (stereo not drawn)	-10.6%
CCOC(=O)N1CCC(n2c(SCC(=O)NCc3ccco3)nc3ccsc3c2=O)CC1	31.7%
O=C(c1cc(-c2ccncc2)nc2ccccc12)N1CCN(c2ccccn2)CC1	93.0%
COCCNC(=O)COC(=O)CSCc1nc2ccccc2s1	-4.2%
CCCCN1C(=O)NC(NC(C)=O)(C(F)(F)F)C1=O (stereo not drawn)	3.4%
CCN(CC)CCCOc1nc(C)nc2c1oc1ccccc12	6.2%

# Remaining list, next part.
Molecule | AmpC inh no det
CNS(=O)(=O)c1cc(OC)ccc1OC | 1.1%
O=C(COc1ccc(Cl)cc1Cl)Nc1noc2ccccc12 | -23.9%
Cc1noc(C)c1C(=O)N1CCC2(CC1)CN(c1ccccn1)C2 | -11.1%
O=C(NCc1ccccc1)C1CCN(S(=O)(=O)N2CCOCC2)CC1 | -5.4%
COc1ccc(C2C3=C(CC(C)(C)CC3=O)Nc3c2c(=O)[nH]c(=O)n3Cc2ccccc2)cc1 (stereo not drawn) | 11.4%
CCOC(=O)c1cccc(NS(=O)(=O)c2cnc[nH]2)c1 | -1.7%
Cc1ccc2nsnc2c1NS(=O)(=O)c1c(C)ccc2nsnc12 | -10.9%
COc1ccc(Nc2ccnc3ccccc23)cc1 | -2.2%
O=S(=O)(c1ccccc1)c1nc(-c2ccco2)oc1N1CCCCCC1 | 12.7%
CN(C(=O)COC(=O)C1c2ccccc2Oc2ccccc21)C1CCS(=O)(=O)C1 (stereo not drawn) | 15.9%
CC(Sc1ccc2c(c1)OCCO2)C(=O)Nc1ccc2c(c1)OCO2 (stereo not drawn) | -5.2%
CC1CCCCC1NC(=O)CCn1c(=O)oc2ccccc21 (stereo not drawn) | 1.0%
COc1ncc2nc(C)c(=O)n(CCc3ccccc3)c2n1 | 50.9%
Cc1ccc(-n2ncc(C#N)c2/N=C/N2CCN(C)CC2)cc1 | 7.1%
CCC(=O)N1CCc2cc(S(=O)(=O)NCCC(=O)NC3CCCc4ccccc43)ccc21 (stereo not drawn) | 48.2%
COc1ccccc1NC(=O)C1CCN(c2ncccn2)CC1 | -7.0%
Cc1ccc(C)c(S(=O)(=O)Nc2ccc(O)cc2)c1 | -15.6%
S=c1[nH]nc(Cc2c[nH]c3ccccc23)o1 | -2.3%
CC(C)C(=O)Nc1ccc(NC(=O)c2ccccn2)cn1 | -16.4%
Cc1c(N=Cc2ccc[nH]2)c(=O)n(-c2ccccc2)n1C | 5.3%

# Of the compounds above, seven contain fluorine.
Molecule | AmpC inh no det
O=C(CC(Nc1ccc(F)cc1)C(=O)O)c1ccccc1 (stereo not drawn) | -16.1%
O=C(CN1CCN(c2ccc(Cl)cc2)CC1)Nc1cccc(F)c1 | 34.0%
O=C(c1ccc(C(F)(F)F)cc1)N1CCCCC1 | 7.3%
Cc1ccc(OC(=O)C(F)(F)F)c2c1NCCC2 | 4.6%
O=C1NCCCN1Cc1ccc(F)cc1Cl | 0.6%
COC(=O)[C@@H](NC(=O)N1CCN(c2cccc(C(F)(F)F)c2)CC1)C(C)C | 60.6%
CCCCN1C(=O)NC(NC(C)=O)(C(F)(F)F)C1=O (stereo not drawn) | 3.4%

# Next part:
Molecule | AmpC inh no det
CCOC(=O)N1CCN(Cc2nc(-c3ccc(OC)cc3)no2)CC1 | 63.8%
COC(=O)C(O)(NC(=O)OCc1ccccc1)C(F)(F)F (stereo not drawn) | -5.5%
O=C(NC1CCSC1=O)c1ccc(Cl)cc1 (stereo not drawn) | -11.1%
COc1ccc(-n2c(=O)c3ccccc3n(CC(=O)NC3CCCCC3)c2=O)c(OC)c1 | 28.9%
c1ccc(-c2ccc(-c3nc(-c4cccnc4)no3)cc2)cc1 | -10.4%
O=C(c1cc(-c2ccncc2)nc2ccc(Cl)cc12)N1CCN(C(=O)C2CCCO2)CC1 (stereo not drawn) | 105.1%
CSCC[C@H](NC(=O)NCCc1ccc(F)cc1)C(=O)O | 0.0%
C=CCNc1ccc(F)c(F)c1N1CCCCCC1=O | 10.5%
CCOC(=O)Cn1c(CN2CCc3ccccc3C2)nc2c1c(=O)n(C)c(=O)n2C | -2.6%
CCOC(=O)c1ccc(N=c2sc(C(=O)OC)cc(=O)n2C2CC2)cc1 | 9.5%
CCOc1ccccc1NC(=O)NC1CC2CCCC(C1)N2Cc1nnnn1CCc1ccccc1 (stereo not drawn) | 53.4%
CN(C)S(=O)(=O)c1ccc(C(=O)NCc2ccccc2)cc1 | 1.0%
O=C(O)CSC1CC(=O)N(c2cccc(Cl)c2)C1=O (stereo not drawn) | -4.7%
C=CCn1c(COc2cccc3ccc(C)nc23)nnc1SCC(=O)O | -9.5%
CSCCC1NC2(C(=O)Nc3c(C)cc(Cl)cc32)[C@@H]2C(=O)N(C3CCCC3)C(=O)[C@H]12 (stereo partly drawn) | 67.4%
Nc1cc(-c2ccc(Br)cc2)[nH]n1 | -4.3%
Cc1cccc(CSc2nncc(=O)[nH]2)c1 | -4.7%
CCOC(=O)c1ccc(N2C(=O)c3n[nH]c(C)c3C2c2ccco2)cc1 (stereo not drawn) | -0.5%
Cn1nc(CC(=O)Nc2cccc3ncccc23)c2ccccc2c1=O | -2.6%
O=C(CN1CCN(Cc2ccccc2)C1=O)NCc1ccc(Cl)cc1 | 36.1%
CCCN1C(=O)c2cc(C(=O)NCCc3cccc(C)c3)ccc2C1O (stereo not drawn) | 3.98µM*[single pt active]
O=C(CSc1nnc(Cc2ccccc2)o1)NCCN1C(=O)CSC1=O | 0.2%
c1ccc2c(SCc3cn4cccnc4n3)ncnc2c1 | -4.2%
COc1cccc(C(=O)N(Cc2cc3cc(C)ccc3[nH]c2=O)C(C)C)c1 | 54.2%
CC(=O)c1cccc(NC(=O)CCNS(=O)(=O)c2cccc(C(C)=O)c2)c1 | -8.8%
Cc1ccc(CN2CCN(CC(=O)N3CCC(C(N)=O)CC3)C2=O)cc1 | -5.6%
COc1ccc(CCNC(=O)CN2C(=O)c3ccccc3S2(=O)=O)cc1OC | 6.9%
Nc1nc(-c2ccc(Br)cc2)cs1 | -10.6%
CC1CN(c2nc3c(c(=O)n(Cc4ccc(Cl)c(Cl)c4)c(=O)n3C)n2C)CC(C)O1 (stereo not drawn) | 114.2%

# Screening results (PubChem)
